Ecoli rRNA inh – reduced GFP signal of wild-type E. coli, primary screen, bacterial rRNA inhibitor project, GFP/RFP fluorescence, OD600, single point. E. coli WT GFP vs humanized-ribosome RFP mutants, 24 h; stronger effect = lower value; DMSO median 0, no signal -100. GFP signal change (wild-type ribosome), % (no concentration beside the values). 350,000 tested, 1.6% active. AID 720706, 2013;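 active means significant combined selectivity score with lowered wild-type GFP, culture density cut under 30%, mutant RFP and density less affected; inactive means any of these conditions unmet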; further: one replicate is shown; some compounds called inactive have numbers as strong as hits
AF4-AF9 inh – inhibitors of AF4 peptide binding to AF9, primary screen, biochemical, AlphaScreen, biotin-AF4 peptide, FLAG-AF9, single point; Protein AF-9 (Homo sapiens), P42568; inhibition, % at 10 µM; 350,000 tested, 0.47% active; AID 651704, 2012;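 active means every replicate reaching a set inhibition limit, whatever the replicate mean, cut at about 25% in these data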;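 further: 0% = plate neutral control median and 100% = total signal loss; the record names both 10 and 1 µM as test concentration; the first replicate is given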
Target sequence (P42568 whole entry, looked up): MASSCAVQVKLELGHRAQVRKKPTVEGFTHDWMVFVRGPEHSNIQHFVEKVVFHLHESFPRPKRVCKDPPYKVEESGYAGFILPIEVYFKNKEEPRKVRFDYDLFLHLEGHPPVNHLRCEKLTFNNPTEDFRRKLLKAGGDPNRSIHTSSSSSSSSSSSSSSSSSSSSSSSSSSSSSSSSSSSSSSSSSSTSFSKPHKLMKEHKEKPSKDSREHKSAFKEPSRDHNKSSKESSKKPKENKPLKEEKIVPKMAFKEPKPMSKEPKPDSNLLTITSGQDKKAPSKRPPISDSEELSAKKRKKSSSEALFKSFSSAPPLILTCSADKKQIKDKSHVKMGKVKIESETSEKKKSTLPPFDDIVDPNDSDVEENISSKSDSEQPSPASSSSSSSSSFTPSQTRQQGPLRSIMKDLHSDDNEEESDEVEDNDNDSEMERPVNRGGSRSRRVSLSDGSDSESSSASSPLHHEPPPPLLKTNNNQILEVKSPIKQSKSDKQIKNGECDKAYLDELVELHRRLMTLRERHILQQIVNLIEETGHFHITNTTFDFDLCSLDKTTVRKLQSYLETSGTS
FGF22 binding – binders of human FGF22 protein, primary screen, FGF22 synaptogenesis inhibitor project, biophysical, thermal shift, single point; calls only at 9.99 µM; AID 651658, 2012; Fibroblast growth factor 22 (Homo sapiens), Q9HCT0; 340,000 tested, 1.5% active; recombinant FGF22 thermal shift, SYPRO orange fluorescence; percent of sucrose octasulfate shift, DMSO zero;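 active means melting point raised past a set limit in the mean and every replicate; three in four hits are not shown here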
Target sequence (Q9HCT0 whole entry, looked up): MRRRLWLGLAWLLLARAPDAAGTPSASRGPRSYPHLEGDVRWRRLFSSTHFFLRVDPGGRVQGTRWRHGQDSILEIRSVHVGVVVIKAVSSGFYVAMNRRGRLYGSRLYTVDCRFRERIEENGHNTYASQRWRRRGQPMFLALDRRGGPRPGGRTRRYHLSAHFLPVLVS
Ecoli rRNA inh OD600 – also measured in Ecoli rRNA inh; calls as there; OD600 change, %; measured here: OD600 growth;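 optical density of the mix in the first replicate; 0 = DMSO median and -100 = no signal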
Ecoli rRNA inh RFP – also measured in Ecoli rRNA inh; calls as there; RFP signal change, %; measured here: RFP humanized mutant strains;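 first replicate; 0 = DMSO median and -100 = no signal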
* = called active by the depositor; i = inactive; x = no result given. This is a subset; the hit share may differ from the screen's.

SMILES	Ecoli rRNA inh	Ecoli rRNA inh OD600	Ecoli rRNA inh RFP	AF4-AF9 inh	FGF22 binding
C[C@@H]1CN([C@H](C)CO)S(=O)(=O)c2ccc(C#Cc3ccccc3F)cc2O[C@@H]1CN(C)C	5	8	10	13	i
C[C@H]1CCCCO[C@H](CN(C)S(=O)(=O)c2ccc(Cl)cc2)[C@@H](C)CN([C@@H](C)CO)C(=O)c2cc(NS(C)(=O)=O)ccc2O1	-3	-4	1.0	2.3	i
COc1ccccc1S(=O)(=O)N[C@@H]1CC[C@H](CCNC(=O)C2CC2)O[C@H]1CO	2	9	2.4	-1.2	i
COC(=O)[C@]12CCCCC=C1N(Cc1cccc3ccccc13)C(=O)[C@H](CC(=O)NCC13CC4CC(CC(C4)C1)C3)C2	5	19	3.1	0.2	i
C[C@@H]1CCCCO[C@H](CN(C)CC2CC2)[C@H](C)CN([C@@H](C)CO)C(=O)c2cc(NS(=O)(=O)c3cccs3)ccc2O1	1	2	-3.6	-9.2	i
O=C(C[C@H]1C[C@@H]2c3cc(NC(=O)Cc4ccncc4)ccc3O[C@@H]2[C@H](CO)O1)NCC1CC1	2	7	-1.4	-1.3	i
CCCNC(=O)N[C@@H]1C=C[C@H](CC(=O)NC2CCCCC2)O[C@@H]1CO	0	-3	-0.8	-0.6	i
C[C@@H]1CN([C@H](C)CO)C(=O)c2cccc(NC(=O)c3ccc(-c4nccs4)cc3)c2O[C@H]1CN(C)Cc1ccc(Oc2ccccc2)cc1	2	15	-4.2	-5.7	i
O=C(C[C@H]1CC[C@H]2[C@@H](COC[C@H](O)CN2Cc2ccc(C(F)(F)F)cc2)O1)NCCc1ccccc1	4	-23	14	1.1	i
O=C(O)C[C@H]1CC[C@@H](NC(=O)c2ccncc2)[C@@H](CO)O1	3	3	2.6	-0.9	i
Cc1ccc(S(=O)(=O)N2C[C@H]3C(=O)C[C@@H]4C(=O)N(c5ccccc5)C(=O)[C@@H]4[C@@H]3C[C@H]2c2cccc(Cl)c2)cc1	6	6	6.2	7.3	i
CC(=O)N(C)C[C@@H]1Oc2cc(-c3ccncc3)ccc2S(=O)(=O)N([C@H](C)CO)C[C@H]1C	2	-8	-1.8	-2.0	i
Cc1ncc(CO)c(CO)c1OCC(O)CN1CCN(c2ccc(F)cc2)CC1 (centres undefined)	3	8	-0.4	-2.8	i
C[C@@H]1CN([C@H](C)CO)C(=O)Cc2cc(NC(=O)C3CCCCC3)ccc2O[C@@H]1CN(C)S(=O)(=O)c1cn(C)cn1	5	7	-1.5	-3.3	i
Cc1cccc(NC(=O)Nc2ccc3c(c2)C(=O)N(C)[C@@H]2CC[C@H](CC(=O)O)O[C@H]2CO3)c1	-5	-6	-2.6	1.0	i
Cc1ccc(S(=O)(=O)N(C)C[C@H]2Oc3ccc(NS(=O)(=O)c4ccccc4)cc3C(=O)N([C@H](C)CO)C[C@@H]2C)cc1	-5	-5	0.9	2.0	i
O=C(C[C@@H]1C[C@H]2c3cc(NS(=O)(=O)c4ccc(F)cc4)ccc3O[C@H]2[C@H](CO)O1)N1CCCCC1	-1	-1	0.4	-0.4	i
CC(=O)Oc1cccc(C2=CC(=O)CC(C)(C)C2=O)c1	19	11	0.4	-3.0	i
O=C(Oc1ccccc1)c1ccccc1C(=O)Oc1ccccc1	-4	6	-11	-6.0	i
C[C@@H]1CCCCO[C@H](CN(C)S(=O)(=O)c2ccccc2)[C@@H](C)CN([C@@H](C)CO)C(=O)c2cc(NC(=O)NC3CCCCC3)ccc2O1	0	2	-0.4	-1.7	i
CO[C@@H]1CN(C)C(=O)c2cc(NC(=O)c3ccc(F)cc3)ccc2OC[C@@H](C)N(C)C[C@@H]1C	1	5	1.5	-0.5	i
COc1ccccc1CCc1nnc(CCC(=O)NCCC2CCCCO2)o1 (centres undefined)	8	3	4.3	5.8	i
C[C@@H]1CN([C@@H](C)CO)C(=O)c2cccc(NC(=O)C3CCOCC3)c2O[C@H]1CN(C)S(=O)(=O)c1cn(C)cn1	2	2	-0.2	-2.7	i
CC(=O)N(C)C[C@@H]1Oc2cc(-c3ccc(F)cc3)ccc2S(=O)(=O)N([C@H](C)CO)C[C@H]1C	-7	-5	0.4	-0.7	i
Cc1cc(C(=O)Nc2cccc3c2O[C@H](CN(C)C(=O)NC(C)C)[C@@H](C)CN([C@@H](C)CO)C3=O)n(C)n1	4	14	0.6	-0.5	i

Exported with values under each structure: part of the list above
Every second line gives: Ecoli rRNA inh	Ecoli rRNA inh OD600	Ecoli rRNA inh RFP	AF4-AF9 inh	FGF22 binding
- C[C@@H]1CCCCO[C@H](CN(C)CC2CC2)[C@H](C)CN([C@@H](C)CO)C(=O)c2cc(NS(=O)(=O)c3cccs3)ccc2O1
→ 1	2	-3.6	-9.2	i
- O=C(O)C[C@H]1CC[C@@H](NC(=O)c2ccncc2)[C@@H](CO)O1
→ 3	3	2.6	-0.9	i
- O=C(Oc1ccccc1)c1ccccc1C(=O)Oc1ccccc1
→ -4	6	-11	-6.0	i
- C[C@@H]1CN([C@@H](C)CO)C(=O)c2cccc(NC(=O)C3CCOCC3)c2O[C@H]1CN(C)S(=O)(=O)c1cn(C)cn1
→ 2	2	-0.2	-2.7	i
- Cc1ccc(S(=O)(=O)N(C)C[C@H]2Oc3ccc(NS(=O)(=O)c4ccccc4)cc3C(=O)N([C@H](C)CO)C[C@@H]2C)cc1
→ -5	-5	0.9	2.0	i
- COC(=O)[C@]12CCCCC=C1N(Cc1cccc3ccccc13)C(=O)[C@H](CC(=O)NCC13CC4CC(CC(C4)C1)C3)C2
→ 5	19	3.1	0.2	i
- O=C(C[C@@H]1C[C@H]2c3cc(NS(=O)(=O)c4ccc(F)cc4)ccc3O[C@H]2[C@H](CO)O1)N1CCCCC1
→ -1	-1	0.4	-0.4	i

(next part)
SMILES	Ecoli rRNA inh	Ecoli rRNA inh OD600	Ecoli rRNA inh RFP	AF4-AF9 inh	FGF22 binding
O=C(C[C@H]1CC[C@@H]2[C@H](COC[C@@H](O)CN2C(=O)Nc2ccc(C(F)(F)F)cc2)O1)NCCc1ccncc1	-57	-78	-12	2.1	i
Cc1cc2nc(-c3ccc(C#N)cc3)c(Cc3cccc(F)c3)n2c(C)c1Br	-6	-2	-6.2	-3.4	i
COCC(=O)N1CC2(CCN(Cc3nccs3)CC2)c2c(n(C)c3cc(OC)ccc23)[C@H]1CO	1	11	3.5	-4.7	i
Cc1noc(C)c1NC(=O)Nc1ccc2c(c1)CC(=O)N([C@H](C)CO)C[C@@H](C)[C@@H](CN(C)Cc1ccc(C(F)(F)F)cc1)O2	-2	-9	2.1	0.9	i
C[C@@H]1CCCCO[C@H](CN(C)S(=O)(=O)c2ccccc2)[C@H](C)CN([C@@H](C)CO)C(=O)c2cc(NC(=O)CCCN(C)C)ccc2O1	1	3	-0.6	-0.4	i
OC[C@@H]1[C@H](c2ccccc2)C2(CN(Cc3nccs3)C2)N1CCC(F)(F)F	1	-3	2.9	0.9	i
Cc1noc(C)c1NC(=O)Nc1cccc2c1O[C@@H](CN(C)Cc1ccc(C(=O)O)cc1)[C@H](C)CN([C@@H](C)CO)C2=O	3	9	2.4	-2.1	i
CCCNC(=O)N[C@@H]1C=C[C@H](CC(=O)N2CCN(C)CC2)O[C@@H]1CO	3	13	-0.6	-0.9	i
CN(C)CC(=O)N[C@H]1CC[C@H](CCNC(=O)Nc2ccc(F)cc2)O[C@@H]1CO	3	10	-0.4	12	i
C=CCC[C@@H](CCCCC)OC(=O)/C=C/[C@@H](O)[C@H](O)C[C@H](O)CC=C	-2	-5	0.8	-2.2	i
C[C@H](CO)N1C[C@H](C)[C@@H](CN(C)S(=O)(=O)c2cccs2)Oc2ccc(NS(=O)(=O)c3ccc(Cl)cc3)cc2CC1=O	-5	-14	1.1	4.2	i
O=C(C[C@H]1C[C@@H]2c3cc(NS(=O)(=O)c4ccc(F)cc4)ccc3O[C@@H]2[C@H](CO)O1)N1CCOCC1	2	-5	3.9	-0.7	i
Cc1noc(C)c1S(=O)(=O)Nc1cccc2c1O[C@H](CN(C)S(=O)(=O)c1ccccc1)[C@H](C)CN([C@@H](C)CO)C2=O	-2	0	-0.1	-14	i
C[C@@H]1CN([C@H](C)CO)S(=O)(=O)c2ccc(-c3cccc(C#N)c3)cc2O[C@H]1CN(C)C	-6	-6	-2.2	-2.1	i
CCOc1ccccc1NC(=O)C1C(c2ccccc2)C1(Cl)Cl (centres undefined)	-6	-21	-5.3	-5.7	x
CO[C@H]1CN(C)C(=O)c2cc(NS(=O)(=O)CC(F)(F)F)ccc2OC[C@@H](C)N(Cc2nccs2)C[C@@H]1C	1	3	-2.2	1.2	i
COc1ccccc1C#Cc1ccc([C@H]2[C@@H](C#N)N(C(=O)C3CCC3)[C@@H]2CO)cc1	-42	-67	-2.3	-1.0	i
CCC(=O)N[C@@H]1C=C[C@@H](CC(=O)NCc2ccccc2F)O[C@H]1CO	4	-6	-1.9	-1.7	i
CC(C)NC(=O)N(C)C[C@@H]1Oc2ccc(NC(=O)NC3CCCCC3)cc2C(=O)N([C@@H](C)CO)C[C@H]1C	4	15	-2.0	-1.1	i
O=C(C[C@@H]1CC[C@H](NS(=O)(=O)c2ccc(F)cc2)[C@@H](CO)O1)N1CCC(Cc2ccccc2)CC1	-1	-10	-6.5	-4.0	i
C[C@@H]1CCCCO[C@H](CN(C)C(=O)CCC(F)(F)F)[C@@H](C)CN([C@H](C)CO)C(=O)c2cc(NC(=O)C3CCCCC3)ccc2O1	-2	15	0.5	-2.4	i
C[C@H](CO)N1C[C@H](C)[C@@H](CN(C)CC2CC2)Oc2ccc(NC(=O)Nc3ccccc3)cc2CC1=O	7	11	-1.4	10	i
Cc1cccc(-c2cnc(C(O)c3cc(C)cc(C)c3)[nH]2)c1 (centres undefined)	-8	-32	-5.0	4.4	i
CC(C)Cc1ccc(-c2cc3nc(NCc4cccc(Cl)c4)ccn3n2)cc1	7	1	5.0	-0.6	i
C[C@@H]1CCCCO[C@@H](CN(C)C(=O)NC2CCCCC2)[C@H](C)CN([C@@H](C)CO)C(=O)c2cc(NS(=O)(=O)c3ccc(F)cc3)ccc2O1	1	-3	1.5	0.9	i
SMILES	Ecoli rRNA inh	Ecoli rRNA inh OD600	Ecoli rRNA inh RFP	AF4-AF9 inh	FGF22 binding
C[C@H]1CCCCO[C@H](CN(C)S(=O)(=O)c2ccccc2)[C@@H](C)CN([C@@H](C)CO)C(=O)c2cc(NC(=O)Cc3ccccc3)ccc2O1	0	1	3.0	0.4	i
O=C(C[C@H]1CC[C@@H]2[C@H](COC[C@H](O)CN2Cc2cccc(-c3ccncc3)c2)O1)N1CCCCC1	-6	-15	-4.6	1.3	i
CCCCN1CC(=O)N2[C@@H]3c4cc(OC)ccc4OC[C@@H]3[C@H](C(=O)OCC)[C@]2(C)C1=O	12	10	-2.1	0.4	i
COCC(=O)N1CC2(CCN(Cc3ccc(Cl)cc3)CC2)c2c([nH]c3cc(OC)ccc23)[C@@H]1CO	-4	3	-1.0	19	i
COCC(=O)N1CC2(CN(C(=O)NC(C)C)C2)c2c(n(C)c3cc(OC)ccc23)[C@H]1CO	3	9	-1.7	-1.4	i
C[C@H](CO)N1C[C@H](C)[C@H](CN(C)S(=O)(=O)c2ccc(Cl)cc2)Oc2ccc(NC(=O)CCC(F)(F)F)cc2C1=O	0	-9	-2.3	0.8	i
CC=Cc1ccc2n(c1=O)C[C@@H]1[C@@H](CO)[C@H](C(=O)NCC(F)(F)F)N(C(=O)c3cccnc3)[C@H]21 (mixture of isomers)	2	12	-0.7	-0.4	i
C[C@H]1CN([C@@H](C)CO)C(=O)c2cc(/C=C/c3ccccc3)cnc2O[C@@H]1CN(C)C(=O)CN1CCOCC1	-1	-1	-3.9	3.0	i
CCCC#Cc1ccc2c(c1)O[C@@H](CN(C)C(=O)c1ccncc1)[C@H](C)CN([C@@H](C)CO)S2(=O)=O	-3	-6	-1.5	-4.2	i
Cc1ccc(S(=O)(=O)N(C)C[C@@H]2Oc3ccc(NC(=O)Nc4ccc(C(F)(F)F)cc4)cc3C(=O)N([C@@H](C)CO)C[C@H]2C)cc1	0	5	0.6	0.9	i
Cc1cc2nc(-c3ccc(Cl)cc3)c(CC3CCCCC3)n2c(C)c1Br	0	-1	-3.6	1.0	i
COc1ccc(NC(=O)C(c2ccc(C#N)cc2)n2c(=O)c(-c3ccco3)nc3ccccc32)cc1 (centres undefined)	-2	-5	7.6	3.5	i
CC(=O)N(C)C[C@H]1Oc2ncc(C#Cc3ccccc3)cc2C(=O)N([C@H](C)CO)C[C@H]1C	2	10	3.1	-2.7	i
COC1=C(N)C(=O)c2nc(C)ccc2C1=O	14	7	9.0	11	i
CCCN(C)C[C@H]1Oc2cc(C#Cc3ccc(F)cc3)ccc2S(=O)(=O)N([C@H](C)CO)C[C@H]1C	1	3	5.5	3.6	i
C[C@H](CO)N1C[C@H](C)[C@H](CN(C)C(=O)c2ccccc2)Oc2cc(C3=CCCCC3)ccc2S1(=O)=O	-11	-31	3.3	5.5	i
C[C@@H]1CN([C@H](C)CO)S(=O)(=O)c2ccc(C#CC(C)(C)O)cc2O[C@@H]1CN(C)Cc1ccccc1	1	-3	-1.7	0.5	i
CCOc1ccc(CCNC(=O)C2CCCN(S(=O)(=O)N3CCCCC3)C2)cc1OCC (centres undefined)	4	1	0.2	-4.8	i
